# Screens: PubChem BioAssay, Broad Institute
# rRNA inh HTS: reduced GFP signal of wild-type E. coli, primary screen, bacterial rRNA inhibitor project, GFP/RFP fluorescence, OD600, single point. E. coli WT GFP vs humanized-ribosome RFP mutants, 24 h; stronger effect = lower value; DMSO median 0, no signal -100. GFP signal change (wild-type ribosome), % (no concentration beside the values). 350,000 tested, 1.6% active;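 active = significant combined selectivity score with lowered wild-type GFP, culture density cut under 30%, mutant RFP and density less affected; inactive = any of these conditions unmet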; note: one replicate is shown; some compounds called inactive have numbers as strong as hits
# MLL AF4-AF9 inh: inhibitors of AF4 peptide binding to AF9, primary screen, biochemical, AlphaScreen, biotin-AF4 peptide, FLAG-AF9, single point; AID 651704, 2012; Protein AF-9 (Homo sapiens), P42568; 350,000 tested, 0.47% active; inhibition, % at 10 µM;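 active = every replicate reaching a set inhibition limit, whatever the replicate mean, cut at about 25% in these data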;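 note: 0% = plate neutral control median and 100% = total signal loss; the record names both 10 and 1 µM as test concentration; the first replicate is given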
# Target sequence (P42568 whole entry, looked up): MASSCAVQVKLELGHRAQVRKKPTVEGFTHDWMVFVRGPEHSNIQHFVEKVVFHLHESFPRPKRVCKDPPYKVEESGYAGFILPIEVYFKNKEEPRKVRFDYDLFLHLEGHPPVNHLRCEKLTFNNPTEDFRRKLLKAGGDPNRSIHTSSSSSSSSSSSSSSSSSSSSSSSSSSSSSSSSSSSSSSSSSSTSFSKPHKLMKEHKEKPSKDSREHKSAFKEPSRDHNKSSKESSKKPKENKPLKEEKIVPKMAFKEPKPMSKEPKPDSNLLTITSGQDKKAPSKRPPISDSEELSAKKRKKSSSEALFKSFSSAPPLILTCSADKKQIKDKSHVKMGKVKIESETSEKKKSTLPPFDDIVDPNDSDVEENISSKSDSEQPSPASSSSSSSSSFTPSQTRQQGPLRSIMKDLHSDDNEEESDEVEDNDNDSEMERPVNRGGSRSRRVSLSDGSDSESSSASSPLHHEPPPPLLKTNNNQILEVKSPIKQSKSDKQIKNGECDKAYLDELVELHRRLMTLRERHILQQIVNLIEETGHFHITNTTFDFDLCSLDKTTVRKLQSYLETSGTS
# rRNA inh HTS OD600: second read-out of rRNA inh HTS, no call of its own (marks repeat the call); OD600 change, %; measured here: OD600 growth;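 optical density of the mix in the first replicate; 0 = DMSO median and -100 = no signal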
# rRNA inh HTS RFP: also measured in rRNA inh HTS; calls as there; RFP signal change, %; measured here: RFP humanized mutant strains;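 first replicate; 0 = DMSO median and -100 = no signal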
# * marks the source's active call; other numbers are inactive results.
rRNA inh HTS	rRNA inh HTS OD600	rRNA inh HTS RFP	MLL AF4-AF9 inh	Structure
0	0	-1.1	-3.9	Cc1noc(C)c1S(=O)(=O)Nc1ccc2c(c1)CC(=O)N([C@@H](C)CO)C[C@H](C)[C@H](CN(C)Cc1ccc(C(=O)O)cc1)O2
3	2	1.2	-1.8	O=C(C1CCC1)N1CC2(C1)[C@@H](c1ccccc1)[C@@H](CO)N2C(=O)CC1CC1
-60	-75	-4.8	11	OC[C@@H]1[C@@H](c2ccc(-c3ccccc3)cc2)[C@@H]2CN(CCC(F)(F)F)CCCCN12
1	7	-0.7	-2.6	C[C@@H]1CN([C@H](C)CO)C(=O)c2cc(NC(=O)Nc3ccccc3)ccc2O[C@H]1CN(C)C(=O)Nc1ccc(F)cc1
-64	-82	-30	-7.4	COc1cc(F)ccc1-c1csc(C(C)(O)c2ccc(F)c(F)c2)n1 (configuration not stated)
-2	-10	2.3	0.6	C[C@H](CO)N1C[C@H](C)[C@H](CN(C)C(=O)Nc2ccc(C(F)(F)F)cc2)Oc2ccc(NC(=O)C3CCCCC3)cc2C1=O
-2	0	-3.7	-0.1	CN1CCN(C(=O)C[C@@H]2CC[C@H]3[C@H](COc4ccc(NC(=O)c5ccc(F)c(F)c5)cc4C(=O)N3C)O2)CC1
1	10	-2.0	-4.3	Cc1ccc(S(=O)(=O)N2C[C@H]3C(=O)C[C@@H](c4ccccc4)N(S(=O)(=O)c4ccccc4)[C@H]3C[C@H]2c2ccccc2)cc1
5	5	-4.1	0.8	CCC(=O)N1CC2(C1)CN(S(C)(=O)=O)[C@@H](CO)c1c2c2ccc(OC)cc2n1C
0	-4	-0.6	-5.0	C[C@@H]1CN([C@H](C)CO)C(=O)c2cccc(NC(=O)C3CCCCC3)c2O[C@H]1CN(C)Cc1ccc(C(=O)Nc2ccccc2N)cc1
0	-1	-2.2	-3.4	Cc1noc(C)c1NC(=O)N(C)C[C@@H]1OCCCC[C@H](C)Oc2ccc(NC(=O)C3CCCCC3)cc2C(=O)N([C@@H](C)CO)C[C@H]1C
0	-2	3.2	0.1	CCC(=O)N1CC2(C1)[C@H](c1ccc(-c3ccccc3C)cc1)[C@H](CO)N2C(C)=O
-7	-4	0.3	0.7	CC(=O)N1CC2(C1)[C@@H](c1ccccc1)[C@@H](CO)N2Cc1cccc(Cl)c1
3	1	1.9	-10	CCCNC(=O)C[C@H]1CC[C@@H]2[C@H](COC[C@@H](O)CN2C(=O)Nc2ccccc2OC)O1
5	0	-0.7	-2.7	CC(C)NC(=O)N(C)C[C@@H]1OCCCC[C@@H](C)Oc2ccc(NS(=O)(=O)c3ccc(Cl)cc3)cc2C(=O)N([C@H](C)CO)C[C@@H]1C
-49	-69	9.2	10	O=C(NCC[C@H]1CC[C@H](NC(=O)C2CCCC2)[C@@H](CO)O1)Nc1ccc(Cl)cc1
-5	-5	0.8	-0.2	C[C@H]1CN([C@@H](C)CO)C(=O)c2cccc(NC(=O)C3CCCCC3)c2O[C@H]1CN(C)S(=O)(=O)c1ccc(F)cc1
1	-7	0.2	-3.3	O=c1cc(O)cc2n1CCC2
-1	-10	16	8.2	COc1ccc(CN(C)C[C@H]2OCCCC[C@@H](C)Oc3ccc(NC(=O)Nc4ccc(C(F)(F)F)cc4)cc3C(=O)N([C@@H](C)CO)C[C@H]2C)cc1
-13	-30	36	14	C[C@@H]1CN([C@@H](C)CO)C(=O)c2c(c3ccccc3n2C)-c2ccccc2CO[C@H]1CN(C)Cc1ccc2c(c1)OCO2
2	-4	-1.3	0.0	COc1ccc(CN(C)C[C@@H]2Oc3ccc(NC(=O)NC4CCCCC4)cc3C(=O)N([C@@H](C)CO)C[C@@H]2C)cc1
6	-4	-0.3	-1.8	CCC(=O)N[C@@H]1CC[C@@H](CC(=O)NCc2cc(F)cc(F)c2)O[C@@H]1CO
1	13	-0.4	-16	O=C(C[C@H]1C=C[C@H](NC(=O)C2CCC2)[C@@H](CO)O1)NC1CCCCC1
5	7	1.7	-3.0	CC(C)NC(=O)Nc1ccc2c(c1)C(=O)N([C@H](C)CO)C[C@@H](C)[C@@H](CN(C)C)OCCCC[C@H](C)O2
-13	-8	4.4	0.8	Cc1ccc(Cn2cc(CN3CC(N4CCN(Cc5cccc(C)c5)CC4)CS3(=O)=O)nn2)cc1 (configuration not stated)
0	-23	3.7	7.1	Cc1noc(C)c1NC(=O)N(C)C[C@H]1Oc2ccc(NC(=O)Nc3ccc(C(F)(F)F)cc3)cc2C(=O)N([C@@H](C)CO)C[C@H]1C
0	1	2.7	-2.4	CCN1[C@H](C(=O)OC)[C@@H](CO)[C@@H]2Cn3c(ccc(C4=CCCCC4)c3=O)[C@@H]21
-2	3	-0.7	-1.4	O=C(C[C@@H]1C[C@H]2c3cc(NS(=O)(=O)c4ccc(F)cc4)ccc3O[C@H]2[C@@H](CO)O1)N1CCCCC1
-27	-41	18	1.1	O=C(Nc1ccc(F)cc1)N1CCCCN2[C@H](CO)[C@H](c3ccc(C4=CCCCC4)cc3)[C@@H]2C1
10	12	-0.9	-1.2	COCC(=O)N(C)C[C@@H]1Oc2ncc(C#CC(C)(C)O)cc2C(=O)N([C@@H](C)CO)C[C@H]1C
-1	2	-1.6	-8.9	CC(C)NC(=O)Nc1ccc2c(c1)C(=O)N([C@H](C)CO)C[C@H](C)[C@H](CN(C)Cc1ccccc1)OCCCC[C@@H](C)O2
1	-4	-3.1	1.8	COCCNc1nc(NCc2cccs2)nc2ccsc12
4	-1	3.0	-3.5	C[C@H]1CN([C@@H](C)CO)C(=O)c2cc(NC(=O)Cn3cnnn3)ccc2O[C@@H]1CN(C)C(=O)NC1CCCCC1
0	1	-1.7	0.7	O=C(C[C@H]1C=C[C@@H](NC(=O)C2CC2)[C@H](CO)O1)NCc1ccncc1
-1	5	-1.0	-1.6	Cc1noc(C)c1NC(=O)N[C@@H]1CC[C@@H](CCNC(=O)C2CCCCC2)O[C@H]1CO
0	1	-2.1	-4.1	CCCN1[C@@H]2Cn3c(cccc3=O)[C@H]1[C@@H](C(=O)N[C@H](C)c1ccccc1)[C@@H]2CO
-20	-30	10	5.0	Cc1cscc1-c1ccc(C(=O)Nc2c(C)cccc2C)o1
7	12	-3.0	4.1	CNC[C@@H]1Oc2ncc(-c3ccccc3C)cc2C(=O)N([C@H](C)CO)C[C@@H]1C
1	3	-5.0	-3.1	O=C(COC(=O)c1ccccc1Cl)Nc1cccnc1Cl
1	4	-2.1	-1.8	CCC(=O)N1CC(=O)N2[C@@H](CO)[C@@H](c3ccc(C#CC(C)C)cc3)[C@@H]2C1
-1	10	2.3	-3.3	C[C@H]1CN([C@@H](C)CO)C(=O)c2cccc(NC(=O)c3nc4ccccc4s3)c2O[C@H]1CN(C)S(=O)(=O)c1ccccc1
-7	-12	-2.1	4.4	COc1ccc(NC(=O)Nc2ccc3c(c2)C(=O)N([C@@H](C)CO)C[C@@H](C)[C@H](CN(C)S(=O)(=O)c2ccc(OC)cc2)O3)cc1
-44	-71	-2.1	0.6	CCCNC(=O)N1CC(=O)N2[C@H](CO)[C@@H](c3ccc(C#Cc4cccc(OC)c4)cc3)[C@@H]2C1
3	11	1.8	-2.3	O=C1CCCC[C@@H](CO)[C@H](O)C[C@H](c2ccccc2)O1
1	4	0.8	-1.8	COCCNC(=O)C[C@H]1C[C@@H]2c3cc(NC(=O)C4CCC4)ccc3O[C@@H]2[C@@H](CO)O1
-2	9	0.0	-0.2	C[C@H]1CN([C@@H](C)CO)C(=O)c2cc(C#CC3CC3)cnc2O[C@@H]1CN(C)C(=O)c1ccc(F)cc1
2	2	-0.1	-1.5	C[C@H]1CN([C@@H](C)CO)C(=O)CCCn2nncc2CO[C@@H]1CN(C)C(=O)CCC(F)(F)F
-45	-66	-7.4	0.5	N#C[C@H]1[C@@H](c2ccc(-c3ccccc3)cc2)[C@@H](CO)N1S(=O)(=O)Cc1ccccc1
-5	2	-4.1	-0.7	O=S(=O)(Cc1ccccc1)NCC[C@H]1CC[C@@H](NS(=O)(=O)c2ccccc2)[C@H](CO)O1
0	-9	6.8	-0.1	CN1c2ccc(-c3ccc(C#N)cc3)cc2[C@@H]2[C@@H](CCN2S(=O)(=O)c2cccc(F)c2)[C@H]1CO
1	4	-3.4	-1.4	O=C([C@H]1[C@H](CO)[C@H]2Cn3c(cccc3=O)[C@H]2N1C(=O)CC1CC1)N1CCCCC1
-6	-5	1.7	5.1	COc1ccc(CN2CC3(CN(C(=O)Cc4ccccc4)C3)c3c([nH]c4cc(OC)ccc34)[C@H]2CO)cc1
4	12	-0.6	-1.1	CO[C@H](CN(C)CC1CCOCC1)[C@H](C)CN(C(=O)Nc1ccc(F)cc1)[C@H](C)CO
-9	-9	1.5	-13	COc1ccc(CNC(=O)C[C@H]2C[C@@H]3c4cc(NC(=O)C5CCC5)ccc4O[C@@H]3[C@@H](CO)O2)cc1
1	-3	0.7	-0.7	C[C@@H]1CN([C@@H](C)CO)C(=O)c2ccccc2-c2ccccc2CO[C@@H]1CN(C)S(=O)(=O)c1ccccc1
2	-5	-2.3	3.0	Cc1noc(C)c1NC(=O)Nc1cccc2c1O[C@H](CN(C)Cc1ccc(C(=O)O)cc1)[C@@H](C)CN([C@H](C)CO)C2=O
3	3	-4.1	0.6	C[C@H](CO)N1C[C@H](C)[C@@H](CN(C)Cc2cccc(F)c2)Oc2cc(C#CC3CC3)ccc2S1(=O)=O
0	12	-6.2	-14	COc1ccc2c3c([nH]c2c1)[C@@H](CO)N(C(=O)C1CCC1)CC31CN(S(C)(=O)=O)C1
9	-4	7.6	0.9	C#CCOCCOCCOCCNc1nc(N2CCN(C(=O)Cn3cc(CC(C)O)nn3)CC2)nc(N2CCN(C(=O)[C@H](CCCCN)n3cc(CCCC)nn3)CC2)n1 (some centres not stated)
6	-3	-0.8	-0.1	CCCNC(=O)N1CC2(C1)[C@@H](c1ccccc1)[C@H](CO)N2C(=O)C1CCC1

# Another view of 11 compounds above:
# Each structure is followed by: rRNA inh HTS	rRNA inh HTS OD600	rRNA inh HTS RFP	MLL AF4-AF9 inh
> CC(C)NC(=O)Nc1ccc2c(c1)C(=O)N([C@H](C)CO)C[C@H](C)[C@H](CN(C)Cc1ccccc1)OCCCC[C@@H](C)O2
  -1	2	-1.6	-8.9
> COCCNc1nc(NCc2cccs2)nc2ccsc12
  1	-4	-3.1	1.8
> C[C@H]1CN([C@@H](C)CO)C(=O)c2cc(NC(=O)Cn3cnnn3)ccc2O[C@@H]1CN(C)C(=O)NC1CCCCC1
  4	-1	3.0	-3.5
> O=C(C[C@H]1C=C[C@@H](NC(=O)C2CC2)[C@H](CO)O1)NCc1ccncc1
  0	1	-1.7	0.7
> Cc1noc(C)c1NC(=O)N[C@@H]1CC[C@@H](CCNC(=O)C2CCCCC2)O[C@H]1CO
  -1	5	-1.0	-1.6
> CCCN1[C@@H]2Cn3c(cccc3=O)[C@H]1[C@@H](C(=O)N[C@H](C)c1ccccc1)[C@@H]2CO
  0	1	-2.1	-4.1
> Cc1cscc1-c1ccc(C(=O)Nc2c(C)cccc2C)o1
  -20	-30	10	5.0
> CNC[C@@H]1Oc2ncc(-c3ccccc3C)cc2C(=O)N([C@H](C)CO)C[C@@H]1C
  7	12	-3.0	4.1
> O=C(COC(=O)c1ccccc1Cl)Nc1cccnc1Cl
  1	3	-5.0	-3.1
> CCC(=O)N1CC(=O)N2[C@@H](CO)[C@@H](c3ccc(C#CC(C)C)cc3)[C@@H]2C1
  1	4	-2.1	-1.8
> C[C@H]1CN([C@@H](C)CO)C(=O)c2cccc(NC(=O)c3nc4ccccc4s3)c2O[C@H]1CN(C)S(=O)(=O)c1ccccc1
  -1	10	2.3	-3.3

# New compounds follow
rRNA inh HTS	rRNA inh HTS OD600	rRNA inh HTS RFP	MLL AF4-AF9 inh	Structure
2	13	2.6	-1.1	COCC(=O)Nc1ccc2c(c1)C(=O)N(C)C[C@@H](OC)[C@H](C)CN(C(=O)Cc1ccccn1)[C@H](C)CO2
-4	-11	3.0	-6.6	C[C@H](CO)N1C[C@H](C)[C@H](CN(C)Cc2ccc(C(=O)Nc3ccccc3N)cc2)Oc2ccc(NC(=O)Cc3ccccc3)cc2CC1=O
5	11	-2.7	-3.6	CO[C@H]1CN(C)C(=O)c2ccc(NC(=O)C3CCC3)cc2OC[C@H](C)N(C)C[C@@H]1C
-1	-11	-1.1	1.6	C[C@@H]1CCCCO[C@@H](CN(C)S(=O)(=O)c2ccc(Cl)cc2)[C@H](C)CN([C@H](C)CO)C(=O)c2cc(NS(=O)(=O)c3cn(C)cn3)ccc2O1
-3	4	-1.2	-0.4	CCNC(=O)C[C@H]1CC[C@@H]2[C@@H](COc3ccc(NC(=O)Nc4ccccc4OC)cc3C(=O)N2C)O1
-8	-2	4.1	1.0	C[C@H](CO)N1C[C@H](C)[C@@H](CN(C)CC2CC2)Oc2c(NC(=O)c3nc4ccccc4s3)cccc2C1=O
-41	-51	-2.9	2.4	O=C(C[C@@H]1CC[C@H]2[C@@H](COC[C@@H](O)CN2S(=O)(=O)c2ccc(F)cc2)O1)NCc1ccc(Cl)c(Cl)c1
1	10	-3.5	-0.9	O=C(NCc1ccc(F)cc1)[C@H]1[C@H](CO)[C@H]2Cn3c(cccc3=O)[C@@H]1N2CC1CC1

# Only part of the results is shown. The share of hits here may be higher or lower than overall.
